TRPML1 inh: qHTS for Inhibitors of the Human Mucolipin Transient Receptor Potential 1 (TRPML1). activity change, negative = inhibition, % (no concentration beside the values). hit rate 0.02% among 390,000. TRPML1-inducible cells, Ca2+ dye fluorescence, FDSS; hits give low values; inhibition of EC80 agonist-evoked calcium signal; in the data active means activity change below about -50%; inconclusive means about -30% to -50%; inactive means above about -30%;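 note: stimulus is agonist 54-4 at its EC80 concentration; % is set by controls: 0 for no effect and ±100 for the full control effect; compound concentration not given in the record; the text of the record puts the active cut at -80%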
Target sequence (Q9GZU1 whole entry, looked up): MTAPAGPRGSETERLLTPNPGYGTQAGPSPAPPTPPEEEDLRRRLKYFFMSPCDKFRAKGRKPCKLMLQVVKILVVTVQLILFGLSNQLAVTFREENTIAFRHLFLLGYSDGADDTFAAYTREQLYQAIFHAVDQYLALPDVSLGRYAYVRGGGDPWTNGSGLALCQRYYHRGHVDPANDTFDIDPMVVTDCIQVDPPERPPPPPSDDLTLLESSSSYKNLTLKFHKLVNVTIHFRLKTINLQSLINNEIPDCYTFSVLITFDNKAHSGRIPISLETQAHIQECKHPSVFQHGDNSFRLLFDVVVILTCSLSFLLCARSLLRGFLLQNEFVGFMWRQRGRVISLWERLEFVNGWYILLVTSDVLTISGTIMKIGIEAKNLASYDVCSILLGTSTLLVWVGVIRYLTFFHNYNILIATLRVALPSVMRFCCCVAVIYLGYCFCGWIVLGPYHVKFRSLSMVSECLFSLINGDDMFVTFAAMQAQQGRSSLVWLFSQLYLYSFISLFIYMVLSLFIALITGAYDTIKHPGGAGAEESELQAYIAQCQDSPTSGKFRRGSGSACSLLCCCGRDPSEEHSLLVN
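Tet-induced TRPML1-DL cells loaded with Ca8 no-wash calcium dye were read kinetically on FDSS. Compound addition was followed by EC80 agonist 54-4 (4 uM final); inhibition was read over 110 s.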
Menin MLL FP FL: qHTS Assay for Inhibitors Targeting the Menin-MLL Interaction in MLL Related Leukemias: Competition With Fluorescein Labeled MLL-derived Peptide; Fluorescence polarization, fluorescein-MLL peptide displacement from menin; FP activity change, % at 61.4 µM; 290,000 tested, under 10 active; inconclusive = falling polarisation curve, or a change in total fluorescence; inactive = total fluorescence flat and polarisation flat or rising; no compound was filed as active; the % refers to the polarisation; negative = inhibition;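 note: % of control where 0% means no effect; inhibitors lower the polarisation; unlabelled MLL peptide was the positive control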
TRPV1 potentiator: HTS Assay for Compounds that Act as Potentiators of the Vanilloid Receptor 1 | Transient receptor potential cation channel subfamily V member 1 (Homo sapiens), Q8NER1 | TRPV1-expressing cells, Fluo-8 calcium influx, capsaicin EC20 potentiation; host cell line not named in the record; control for the full effect not named in the record | potentiation, % at 8.33 µM | hit rate 0.02% among 320,000 | AID 540277, 2011; active means potentiation above 80%; inconclusive means 30% to 80%; inactive means below 30%; note: 0% is about no effect
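Cells expressing TRPV1 were dye-loaded with Fluo-8 and read kinetically: 10 s baseline, 3 min after compound (agonist portion), then 2 min after EC20 capsaicin (allosteric enhancer portion). Calcium-bound dye fluorescence at 480/520 nm.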
Sfp inh: qHTS Assay for Inhibitors of Bacillus subtilis Sfp phosphopantetheinyl transferase (PPTase); hit rate 3.5% among 310,000; Potency, µM, for inactives: max response, negative = inhibition, most hits filed as inhibitors; AID 1490, 2009; Biochemical Sfp PPTase activity, qHTS; active = well fitted inhibition curve with a large enough effect; inconclusive = small, poorly fitted or top-dose-only effect, or another doubt; inactive = no such curve, though single readings can be large or run the other way;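 note: the enzyme is Sfp with the accession as filed and its product quenches rhodamine fluorescence; potency is the fitted concentration of half-maximal effect; 0% = enzyme reaction without inhibitor and -100% = no enzyme wells; top concentration of the series not given in the record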
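Fluorescence-quenching assay: 15 nM Sfp-PPTase preincubated 15 min at room temperature with compound, then 5 uM rhodamine-CoA and 12.5 uM BHQ-2-labelled YbbR peptide added. Fluorescence (ex 525/em 598 nm) read at start and after 30 min; difference gives rate.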
gsp ag: qHTS for Agonist of gsp, the Etiologic Mutation Responsible for Fibrous Dysplasia/McCune-Albright Syndrome: qHTS; gsp mutant cells, cAMP HTRF, 30 min; control for the full effect not named in the record; hit rate 0.13% among 340,000; Potency, µM (highest dose often 76.9 µM), for inactives: at the highest dose activation (cAMP increase), usual class: activators; AID 624287, 2012; active = well fitted activation curve with a large enough effect; inconclusive = small, poorly fitted or top-dose-only effect, or another doubt; inactive = no such curve, though single readings can be large or run the other way; cell line not stated here;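 note: phosphodiesterase inhibitor Ro 20-1724 added with compounds to block cAMP breakdown; potency is the fitted concentration of half-maximal effect; nearly all actives have a fitted effect of over 60% in size; about a fifth of the inactives were tested at one dose only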
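Cells in DMEM/10% FBS with G418 were pretreated with compounds in DMSO plus […] (300 uM stock) for 30 min at 37C. cAMP was measured by HTRF (cAMP-d2 plus anti-cAMP antibody-K) after 30 min at room temperature.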
gsp antagonist: qHTS for Antagonists of gsp, the Etiologic Mutation Responsible for Fibrous Dysplasia/McCune-Albright Syndrome: qHTS. gsp-mutant cells, cAMP HTRF, 30 min; control for the full effect not named in the record. Potency, µM (series often up to 76.9 µM), for inactives: at the top dose activity change, negative = inhibition, usual class: inhibitors. hit rate 0.4% among 340,000. AID 624288, 2012; active = falling curve of any shape with a large fitted effect; inconclusive = falling curve, mostly with a smaller effect; inactive = flat or rising curve; cell line not stated here;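 note: intracellular cAMP measured with PDE inhibitor Ro 20-1724 present during compound exposure; potency is the fitted concentration of half-maximal effect; % is set by controls: 0 for no effect and ±100 for the full control effect; nearly all actives have a fitted effect of over 65% in size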
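Cells in G418 medium, seeded 16-24 h, 37C; buffer exchange to DPBS + 1 mM CaCl2, 0.5 mM MgCl2, 0.05% BSA; cpds in DMSO + […] (300 uM stock), 30 min 37C; HTRF cAMP detection.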
ClpP mod: qHTS Assay for Activators of ClpP; purified B. subtilis ClpP, FRET peptide cleavage, 20 min; Potency, µM (top dose mostly 57.5 µM), without a hit: at the top dose activity change, negative = active; AID 651965, 2013; hit rate 1.9% among 340,000; active = well fitted falling curve with a large enough effect; inconclusive = small, poorly fitted or top-dose-only effect; inactive = no such curve, though single readings can be large or run the other way; note: potency is the fitted concentration of half-maximal effect; the source files actives as falling curves though it sought activators and does not explain the sign; nearly all actives have a fitted effect of over 65% in size; many hits overshoot -100%
Target sequence (P80244 whole entry, looked up): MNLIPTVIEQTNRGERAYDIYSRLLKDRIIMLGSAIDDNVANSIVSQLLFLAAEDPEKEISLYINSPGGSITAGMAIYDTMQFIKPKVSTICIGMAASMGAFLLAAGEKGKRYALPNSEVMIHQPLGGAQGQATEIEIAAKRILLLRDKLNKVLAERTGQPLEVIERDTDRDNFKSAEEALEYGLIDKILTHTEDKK
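Buffer: 100 mM Tris/HCl pH8, 100 mM KCl, 0.05% low protease BSA, 2.5% glycerol, 0.01% Tween-20. ClpP 10 microg/mL final; 20 min RT; delta FRET normalized to ADEP and DMSO controls.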
* marks the source's active call; other numbers are inactive results; ? = inconclusive; . = no result given; & = joins results of further samples; [ ] = dose if it differs, or a comment. An unsorted share of the library; overall some 4.9% were active at least once.

molecule,TRPV1 potentiator,Sfp inh,Menin MLL FP FL,gsp ag,TRPML1 inh,ClpP mod,gsp antagonist
COc1ccc(N2CCN(C(C)C(=O)N3CCCC3)CC2)cc1 (stereo not drawn),4,?,-1.8,45%[15.4 µM],-11,.,6%
CCOC(=O)c1sc(NC(=O)c2ccc(CC)s2)nc1C,.,14%,9.6,2%,-12,-1.0%,4%
OCCN(Cc1ccccc1)Cc1cccc(Cl)c1Cl,-14,?,-2.9,-16%,-3,0.7%,-8%
COc1ccccc1OCCc1nnc(N)s1,-31,2%,2.1,-14%,-6,0.0%,8%
CC1(C)c2cc(Cl)ccc2-n2c1cc(O)c(-c1ccccc1)c2=O,7,9%,3.7,?,-7,.,-21%
Cc1nc2ccccc2n(CC(=O)Nc2cc(Cl)cc(Cl)c2)c1=O,-8,15%,6.8,-8%,9,.,-10%
Cc1ccccc1C(=O)N1CCN(CCNC(=O)C(=O)Nc2ccc(Br)cc2)CC1,9,-2%,-3.6,-48%[inhibitor],-10,-1.7%,-1%
CC(=O)/C(N=Nc1c(C)n(C)n(-c2ccccc2)c1=O)=C(\C)O,18,2%,-5.5,11µM*,-5,.,2%
O=C(Cn1cc2c(n1)CCCCC2)NCc1ccccc1,-2,1%,-1.2,?,-11,-1.9%,3%
COc1ccccc1N1CC(C(=O)OCC(=O)c2c(N)n(C)c(=O)n(C)c2=O)CC1=O (stereo not drawn),.,.,.,1%,6,-5.1%,.
CNC(=O)c1[nH]cnc1C(=O)Nc1ccccc1OC,8,5%,3.5,7%,16,0.9%,6%
COC(=O)C1CCN(CC(=O)Nc2ccc(OC)c(Cl)c2)CC1,-4,9%,1.7,-139%[inhibitor],14,0.6%,7%
Cc1ccnc(NC2(C(F)(F)F)N=C3SCCN3C2=O)c1 (stereo not drawn),4,20%,0.1,-16%[15.4 µM],-14,.,8%
Nc1ccccc1C(=O)N/N=C1/C2CN3CCN(C2)CC1(Cc1ccccc1)C3,-4,8%,-0.9,1%,16,.,2%
O=C(CSc1nc(-c2ccc(F)cc2)cs1)N1CCc2ccccc21,19,?,-0.5,?,-4,-2.4%,-11%
CC1(c2ccc3c(c2)OCCO3)NC(=O)N(CC(=O)Nc2c(F)cccc2F)C1=O (stereo not drawn),0,.,.,-30%,3,-1.3%,9%
Cc1ccc(N2C(N)=C(C#N)C3(C(=O)N(C)c4ccccc43)C3=C2CC(C)(C)CC3=O)cc1Cl (stereo not drawn),-12,16%,-0.8,-17%,-5,-0.1%,-11%
COc1ccc(-c2c3c(=O)n(C)c(=O)n(C)c3cn2Cc2cccnc2)cc1,8,-3%,0.9,14%,23,-2.1%,5%
Cc1ccc(C(=O)C(C)OC(=O)Cc2n[nH]c(=O)c3ccccc23)cc1C (stereo not drawn),-6,.,.,-6%[15.4 µM],13,4.2%,-14%
O=C(NNS(=O)(=O)c1ccccc1)C1CCCCC1,3,8%,-3.0,11%,-7,.,9%
O=C(O)CC(c1ccccc1)c1ccccc1,9,16%,4.6,-15%,3,0.8%,-12%
Cc1cccc(C)c1NC(=O)CN(C)C(=O)CN1C(=O)NC2(CCCC2)C1=O,16,.,.,?,10,0.7%,15%
CCC(=O)Nc1ccc(S(=O)(=O)N2CCCCC2)cc1OC,-3,18%,2.8,-34%[inhibitor],-3,-0.7%,0%
Nc1nc(SCC(=O)NC2CCCC2)[nH]c(=O)c1-c1ccccc1,16,16%,7.5,.,.,.,.
CCNc1nc(Oc2ccc(=O)[nH]n2)nc(N2CCOCC2)n1,7,17%,-0.7,6%,-18,-3.2%,24%
Cn1c(=O)c(=O)n(C)c2cc(S(=O)(=O)N3CCCC3C(=O)Nc3ccc(F)cc3)ccc21 (stereo not drawn),17,15%,2.2,-8%,0&-16,?,-1%
Oc1c(Br)cc(/C=N/Nc2nncc3ccccc23)cc1Br,-10,?,?,?,47,.,?
COc1ccc(C(=O)N2CC(c3ccccc3)CC2=O)cc1 (stereo not drawn),.,8%,3.4,15%[15.4 µM],-2,-1.8%,5%
CCOC(=O)Cn1c(=O)c2c(nc3n2CCCCN3c2ccc(C)cc2)n(C)c1=O,-4,23%,2.6,?,-9,-1.5%,-4%
COc1ccc(NC(=O)CSc2nnc(Cc3ccc(C)cc3)c(=O)n2N)cc1OC,27,.,.,5%,19,-0.5%,8%

Next section:
molecule,TRPV1 potentiator,Sfp inh,Menin MLL FP FL,gsp ag,TRPML1 inh,ClpP mod,gsp antagonist
CC(=O)NCCC(=O)Nc1ccc(C(N)=O)cc1,1,20%,-4.3,-5%[15.4 µM],68,.,22%
Cc1noc(/C=C/c2ccco2)c1S(=O)(=O)N1CCC(C(=O)NCc2ccco2)CC1,-14,19%,7.1,-56%[inhibitor],-2,-12%,3%
COc1ccc(Nc2ccc([N+](=O)[O-])cc2[N+](=O)[O-])cc1,-18,0%,0.6,-1%[15.4 µM],30,.,.
NNC(=O)Cn1c(SCc2ccccc2)nc2ccccc21,8,13%,0.9,4%,41,-2.5%&0.4%,-11%
Cc1ccc(CN2CCSCC2)cc1,0,-28%,0.5,-4%,8,2.5%,1%
NS(=O)(=O)c1ccc(CCNc2ncnc3c2c(-c2ccccc2)cn3-c2ccc(F)cc2)cc1,4,12%,-1.4,?,-5,-25%,?
CC(Sc1nnnn1C1CCCC1)C(=O)Nc1cccc(S(=O)(=O)N2CCOCC2)c1 (stereo not drawn),10,.,.,-10%,3,-2.7%,-4%
Cc1nnc2sc(-c3cccc(F)c3)nn2c1=O,15,6%,4.9,?,29,.,-1%
O=C(NC(=S)Nc1ccc(CN2CCCCC2)cc1)c1cc2ccccc2o1,-12,-7%,5.9,-12%,3,1.7%,15%
COc1ccc(N2CCN(C(=O)CCNS(=O)(=O)c3cccs3)CC2)cc1,3,12%,-1.4,-23%,-1,-0.5%,-3%
CC1CCCC(NC(=O)CSc2n[nH]c(=O)n2Cc2ccccc2)C1C (stereo not drawn),.,.,.,-4%,0,.,5%
COc1ccc(C)cc1S(=O)(=O)Nc1cccc(-c2cn3cccnc3n2)c1,15,20%,2.0,4%[15.4 µM],-7,.,-10%
C[C@H]1CC[C@@]2(O[C@@H](CCO)C[C@H](O)[C@H]2O)O1,.,.,.,-7%,28,-0.3%,13%
CCCCn1c(CCNC(=O)CC)nc2ccccc21,-15,10%,1.8,-44%[inhibitor],38,-0.5%,7%
COC(=O)CCc1c(C)c(C#N)c2nc3ccccc3n2c1N1CCCC1,1,22%,2.2,7%,3,-6.0%,6%
S=C(NC1CCCCC1)N1CCN(C/C=C/c2ccccc2)CC1,-14,11%,4.6,-15%,27,-14%,2%
CC(=O)Nc1ccc([C@H]2[C@H](C)CC[C@H]3C(=O)N4[C@@H](CC[C@@H](C)[C@@H]4c4ccc(NC(C)=O)cc4)C(=O)N32)cc1,1,21%,3.9,.,.,.,.
Cc1cc2c(C)nc(-c3ccccc3)nc2o1,16,3%,2.2,-45%[inhibitor],3,-0.6%,-3%
Cc1cccc(-c2cc(C(=O)NCCCn3ccnc3)c3ccccc3n2)c1,-11,-5%,1.9,.,.,.,.
Cc1cc(C)nc(Nc2n[nH]c(-c3ccc(C(C)(C)C)cc3)n2)n1,16,32%[activator],-1.4,9%[15.4 µM],4,.,-2%
COc1ccc(N(CC(=O)N/N=C/c2cccnc2)S(=O)(=O)c2ccc(C)cc2)cc1OC,?,7%,.,4%[15.4 µM],4,0.7%,-1%
COc1ccc(CCNC(=O)CCC(=O)N2CCOc3ccc(Cl)cc32)cc1OC,25,-7%,1.7,3%,-9,-2.2%,-16%
CCC(C)NC(=O)C1=CCN(S(=O)(=O)c2ccc(C)cc2)CC1 (stereo not drawn),4,1%,-0.8,-35%[inhibitor],-54*,0.0%,-11%
OCCCCNc1cccc2ccccc12,-4,-25%,2.7,-52%[inhibitor],9,16µM*,-12%
CCCn1c(N)c(N(CCOC)C(=O)c2cccc(Cl)c2)c(=O)[nH]c1=O,-1,10%,2.9,-13%[15.4 µM],-4,.,-8%
COC(=O)c1ccc(C(=O)NC2CCSc3ccccc32)cc1 (stereo not drawn),7,13%,3.8,-7%,3,-0.1%,-7%
Cc1ccc(-c2cn(CCN)c(-c3ccncc3)n2)cc1,-30,.,.,.,0,-9.9%,6%
CCC1Oc2ccc(C)cc2N(CC(=O)NCCCN2CCCC2)C1=O (stereo not drawn),?,1%,-1.5,18%,1,.,10%
CCOC(=O)C1(CC)NC(c2ccc(OC)cc2OC)C2C(=O)N(C)C(=O)C21 (stereo not drawn),-1,11%,0.2,23%,-12,1.3%,-17%
CCOC(=O)C1=C(CN2CCN(c3ccc(F)cc3)CC2)NC(=O)NC1c1cccs1 (stereo not drawn),-5,-3%,0.9,-7%,-7,-0.9%,-10%
COC(=O)c1ccc(-c2nc(CN3CCN(Cc4cccc(C)c4)CC3)c(C)o2)cc1,7,11%,0.0,1%,.,4.3%,1%
Cc1cc(NC(=O)CSCC(=O)Nc2nc3ccccc3[nH]2)no1,11,.,.,3%,-6,2.5%,4%

Source: PubChem (National Center for Advancing Translational Sciences (NCATS))
